Ecoli rRNA inh – reduced GFP signal of wild-type E. coli, primary screen, bacterial rRNA inhibitor project, GFP/RFP fluorescence, OD600, single point | E. coli WT GFP vs humanized-ribosome RFP mutants, 24 h; stronger effect = lower value; DMSO median 0, no signal -100 | AID 720706, 2013 | GFP signal change (wild-type ribosome), % (concentration not given with the values) | actives 1.6% (n = 350,000);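 active = significant combined selectivity score with lowered wild-type GFP, culture density cut under 30%, mutant RFP and density less affected; inactive = any of these conditions unmet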; also: one replicate is shown; some compounds called inactive have numbers as strong as hits
T cruzi repl – inhibitors of intracellular T. cruzi growth, primary screen, luminescence, NIH3T3 host cells | T. cruzi beta-gal in NIH3T3, 90 h | inhibition, % (no concentration beside the values) | actives 1.4% (n = 300,000);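 active = mean inhibition across valid replicates above about 55%, limit read from the data; inconclusive = mean below that limit but half or more replicates reach it; inactive = mean below it, under half of replicates reach it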;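 also: signal also drops with host cell toxicity which is not excluded here; 0% = plate median of DMSO wells and 100% = zero luminescence signal; higher percent means less beta-gal luminescence so fewer parasites; stock transfer was 50 nL into about 50 µL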
RanGTP-Impb inh – inhibitors of RanGTP-importin-beta interaction, primary screen, biochemical, FRET, CFP-Ran, YFP-importin-beta, homogeneous. inhibition, % (no concentration beside the values). actives 1.1% (n = 300,000). AID 2216, 2009. cell-free CFP-Ran/YFP-importin-beta FRET ratio. Ran GTPase (GTP-bound) - importin-beta complex;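 active = most replicates above 15%; inconclusive = exactly half above 15%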;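 also: 0% = DMSO wells and 100% = Ran loaded with GDP instead of GTP; wells of about 40 µL received 100 nL stock; the first replicate is given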
FGF22 binding – binders of human FGF22 protein, primary screen, FGF22 synaptogenesis inhibitor project, biophysical, thermal shift, single point. Fibroblast growth factor 22 (Homo sapiens), Q9HCT0. recombinant FGF22 thermal shift, SYPRO orange fluorescence; percent of sucrose octasulfate shift, DMSO zero. calls only at 9.99 µM. actives 1.5% (n = 340,000). AID 651658, 2012;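 active = melting point raised past a set limit in the mean and every replicate; inconclusive = no clear call; three in four hits are not shown here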
Target sequence (Q9HCT0 whole entry, looked up): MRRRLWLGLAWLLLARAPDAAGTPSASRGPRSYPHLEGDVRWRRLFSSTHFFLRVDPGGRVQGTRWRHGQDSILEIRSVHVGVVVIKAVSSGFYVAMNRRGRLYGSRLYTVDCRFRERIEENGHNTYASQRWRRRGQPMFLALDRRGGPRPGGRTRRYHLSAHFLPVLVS
ALR H2O2 inh – inhibitors of human ALR sulfhydryl oxidase, primary screen, biochemical, H2O2 detection, HRP-luminol luminescence, single point | FAD-linked sulfhydryl oxidase ALR (Homo sapiens), P55789 | purified ALR, DTT oxidation | inhibition, % (no concentration beside the values) | actives 3.8% (n = 290,000);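 active = mean and each replicate at 75% or more; inconclusive = only one of the two met; inactive = neither met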;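 also: stock transfer was 7.5 nL into about 7.5 µL; 0% = neutral wells and 100% = wells with inactivated enzyme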
Target sequence (P55789 whole entry, looked up): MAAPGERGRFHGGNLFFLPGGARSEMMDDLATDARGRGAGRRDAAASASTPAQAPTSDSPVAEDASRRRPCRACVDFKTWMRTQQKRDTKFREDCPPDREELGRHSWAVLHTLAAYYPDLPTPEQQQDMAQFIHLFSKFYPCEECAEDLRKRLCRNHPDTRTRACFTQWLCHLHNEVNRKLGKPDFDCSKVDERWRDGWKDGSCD
MLL AF4-AF9 inh – inhibitors of AF4 peptide binding to AF9, primary screen, biochemical, AlphaScreen, biotin-AF4 peptide, FLAG-AF9, single point; Protein AF-9 (Homo sapiens), P42568; inhibition, % at 10 µM; actives 0.47% (n = 350,000); AID 651704, 2012;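 active = every replicate reaching a set inhibition limit, whatever the replicate mean, cut at about 25% in these data; inconclusive = mean inhibition reaches that limit but some replicates miss it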;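 also: 0% = plate neutral control median and 100% = total signal loss; the record names both 10 and 1 µM as test concentration; the first replicate is given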
Target sequence (P42568 whole entry, looked up): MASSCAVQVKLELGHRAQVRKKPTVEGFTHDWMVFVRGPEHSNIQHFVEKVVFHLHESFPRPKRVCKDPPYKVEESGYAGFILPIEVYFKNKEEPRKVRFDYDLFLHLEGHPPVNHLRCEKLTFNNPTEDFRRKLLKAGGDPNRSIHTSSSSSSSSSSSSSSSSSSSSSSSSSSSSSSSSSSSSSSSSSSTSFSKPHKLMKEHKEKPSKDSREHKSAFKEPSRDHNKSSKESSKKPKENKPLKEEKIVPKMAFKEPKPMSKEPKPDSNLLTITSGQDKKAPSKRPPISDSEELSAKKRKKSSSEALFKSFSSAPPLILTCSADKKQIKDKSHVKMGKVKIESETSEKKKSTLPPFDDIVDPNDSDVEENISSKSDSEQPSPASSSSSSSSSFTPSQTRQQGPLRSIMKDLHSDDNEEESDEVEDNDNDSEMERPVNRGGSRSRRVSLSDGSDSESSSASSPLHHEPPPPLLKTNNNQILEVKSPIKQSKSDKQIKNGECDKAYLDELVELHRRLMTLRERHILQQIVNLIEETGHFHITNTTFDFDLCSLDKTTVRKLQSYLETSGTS
Beta cell apopt – inhibitors of cytokine-induced beta cell apoptosis, primary screen, luminescence; INS-1E cytokine-induced death, ATP luminescence, 48 h; percent of positive-control rescue, neutral wells zero; protection from apoptosis, % (test concentration not listed); actives 0.8% (n = 300,000);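 active = all replicates at 75% or more, or half of them and the mean; inconclusive = half reach 75% but not the mean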;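 also: 0% = cytokine-treated negative control wells and 100% = positive control rescue; higher means more ATP so stronger rescue from cytokine killing; wells of about 40 µL received 100 nL stock; the first replicate is given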
Calb FLC – C. albicans growth inhibition with fluconazole, primary screen, CaCi-2 strain, Alamar Blue fluorescence. actives 0.57% (n = 300,000). C. albicans CaCi-2 (fluconazole-resistant clinical isolate) + fluconazole, 48 h. growth inhibition, % (test concentration not listed);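 active = most replicates above 75%; inconclusive = exactly half above 75%; inactive = most below 75%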;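 also: all wells also contain fluconazole at 8 µg/ml as a sub-toxic cotreatment; 0% = median of DMSO wells and 100% = median of geldanamycin control wells; wells of about 8 µL received 7.5 nL stock; the first replicate is given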
Ecoli rRNA inh OD600 – recorded beside Ecoli rRNA inh, whose call it bears; OD600 change, %; measured here: OD600 growth;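 optical density of the mix in the first replicate; 0 = DMSO median and -100 = no signal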
Ecoli rRNA inh RFP – further read-out of Ecoli rRNA inh, marked with its call; RFP signal change, %; measured here: RFP humanized mutant strains;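 first replicate; 0 = DMSO median and -100 = no signal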
* hit, by the source's call; i = inactive; ? = inconclusive; . = no result given. Some of the compounds tested; count on the stated rates, not on these rows.

The first 2 records (preview)
SMILES	Ecoli rRNA inh	Ecoli rRNA inh OD600	Ecoli rRNA inh RFP	T cruzi repl	RanGTP-Impb inh	FGF22 binding	ALR H2O2 inh	MLL AF4-AF9 inh	Beta cell apopt	Calb FLC
COCCOC(=O)c1c(C)oc2ccc(NS(=O)(=O)c3ccc(C)cc3)cc12	-15.9	-27.1	21.7	0.8	1.1	i	-2.1	2.9	-0.2	4.4
CCN(CC)C(=O)CCn1nc(-c2ccc(C)cc2)c2ccccc2c1=O	.	.	.	10.3	3.3	.	-3.6	.	.	-11.0

All compounds of this part, from the start:
SMILES	Ecoli rRNA inh	Ecoli rRNA inh OD600	Ecoli rRNA inh RFP	T cruzi repl	RanGTP-Impb inh	FGF22 binding	ALR H2O2 inh	MLL AF4-AF9 inh	Beta cell apopt	Calb FLC
COCCOC(=O)c1c(C)oc2ccc(NS(=O)(=O)c3ccc(C)cc3)cc12	-15.9	-27.1	21.7	0.8	1.1	i	-2.1	2.9	-0.2	4.4
CCN(CC)C(=O)CCn1nc(-c2ccc(C)cc2)c2ccccc2c1=O	.	.	.	10.3	3.3	.	-3.6	.	.	-11.0
Cc1sc2ncnc(N(C)Cc3ccco3)c2c1C	.	.	.	-10.5	-1.3	.	-3.5	.	0.7	-29.2
C=CCNc1nc(C(=O)OCC(=O)N(Cc2ccccc2)C(C)C)cs1	-2.5	5.0	1.1	.	.	i	1.6	2.0	-0.5	.
CCOC(=O)C(Cc1ccccc1)C(=O)Nc1ccc(NC(=O)C(Cc2ccccc2)C(=O)OCC)cc1 (stereo not drawn)	.	.	.	2.1	0.4	.	-9.2	.	-4.7	1.4
COC(=O)c1ccc(NC(=O)Cn2nc(SC)n(N)c2=S)cc1	.	.	.	13.9	0.4	.	.	.	-7.7	-4.4
C=CCn1cnc2c(c1=O)c1nc3ccccc3nc1n2/N=C/c1cc(OC)c(OC)c(OC)c1	.	.	.	15.8	4.0	.	-5.0	.	102.1*	-2.5
O=C(O)c1ccc(N2CCN(Cc3ccc4c(c3)OCO4)CC2)c([N+](=O)[O-])c1	-6.8	-9.4	-7.6	-5.0	-1.8	i	.	1.9	-4.7	1.1
COc1ccccc1-n1c(SCC(=O)NCC2CCCO2)nc2c([nH]c3ccccc32)c1=O (stereo not drawn)	-11.4	-14.1	-2.1	-10.1	2.2	i	-15.7	2.4	-1.2	3.7
Cc1ccccc1CN1CCN(Cc2cc(=O)c3ccccc3[nH]2)CC1CCO (stereo not drawn)	8.6	13.2	1.5	14.2	4.6	i	.	0.7	.	2.7
C=CCc1cccc(CNc2nc3ccccc3n2CC)c1O	.	.	.	8.0	-1.3	.	8.7	.	11.8	54.8
Cc1ccnc(N/C=C(/NC(=O)c2ccccc2)C(=O)NN)n1	8.0	5.6	-1.4	-2.9	-4.9	i	27.0	-0.7	-0.7	-4.2
CN(C(=O)COC(=O)c1cncc(Br)c1)C1CCCCC1	4.0	5.6	-1.7	.	.	i	-1.1	0.8	-1.5	.
CCOC(=O)N1CCC(NC(=O)CC2C(=O)NCCN2Cc2ccccc2F)CC1 (stereo not drawn)	15.8	2.9	1.8	-36.6	3.1	i	-1.6	-1.8	-7.4	-5.2
Cc1c2cnn(CC(=O)Nc3c(F)c(F)cc(F)c3F)c(=O)c2c(C)n1Cc1ccc(F)cc1	5.2	12.9	1.2	3.8	0.6	i	-3.4	-11.2	-3.0	-11.8
Cc1cc(=O)[nH]c(SCc2csc(-c3ccccc3)n2)n1	.	.	.	-37.5	3.1	.	-4.4	.	-4.4	0.4
CC(C)c1ccccc1OCC(=O)NC1CCCc2ccccc21 (stereo not drawn)	.	.	.	13.6	2.1	.	-5.1	.	5.9	-0.1
CC(=O)c1cc(C)ccc1OC(=O)CN1C(=O)c2ccccc2C1=O	3.4	5.0	1.6	-2.0	?	i	10.1	2.7	3.4	-0.5
CCS(=O)(=O)N1CCC(C(=O)NC2CCCCC2)CC1	8.0	7.6	0.6	-13.6	0.4	i	-0.9	5.0	-2.6	-7.9
O=C(Nc1cccnc1)c1cc(-c2ccc(Br)cc2)nc2ccccc12	2.9	13.1	2.8	21.4	-2.8	.	-3.7	-1.1	1.1	7.3
CCc1n[nH]c(=S)n1/N=C/c1ccccc1OCc1ccc(Cl)cc1	-4.2	-3.3	-0.1	-14.0	1.8	i	-0.3	1.6	-1.7	-1.2
CN(C)CCCN(C(=O)c1ccc(S(=O)(=O)N2CCCC2)cc1)c1nc2c(F)cc(F)cc2s1	0.2	2.0	0.6	47.0	-0.5	i	-10.4	4.3	.	-17.6
CCCCNC(=O)c1ccccc1NS(=O)(=O)c1ccc2c(c1)OCCO2	-20.0	-17.4	0.3	-29.8	-4.7	.	-0.7	.	.	19.3
COc1cc(NC(=S)N2CCN(S(=O)(=O)c3ccc(F)cc3)CC2)cc(OC)c1	17.9	8.9	1.6	26.1	2.2	i	-24.8	1.4	-1.1	-26.1
Cc1ccc(Sc2nc3ccc(C)cn3c(=O)c2/C=N/O)cc1	9.3	5.0	1.2	31.1	4.0	.	98.6*	0.0	-9.3	-5.5
CS(=O)(=O)N1CC(C(=O)NC2CC2)Oc2ccc(Cl)cc21 (stereo not drawn)	.	.	.	-2.9	2.4	.	-9.4	.	2.5	11.4
O=C(COC(=O)Cn1cnc2ccccc2c1=O)Nc1ccccc1Sc1ccc(Cl)cc1	-31.5	-53.3	-6.5	-14.9	-1.4	i	42.9	-6.2	-1.0	-3.4
CCc1ccc(C2=NN(C(=O)OC)C(O)(C(F)(F)F)C2)cc1 (stereo not drawn)	.	.	.	-4.4	4.3	.	-5.3	.	.	8.2
Cc1cc(=O)[nH]c(SCc2cn3ccccc3n2)n1	6.4	-4.8	-3.2	-5.1	4.7	i	0.5	-4.1	-2.0	-4.9
Cc1ccc2c(c1)n([O-])c1c([n+]2=O)CCCC1	.	.	.	-10.8	1.3	.	-7.1	.	-3.3	8.8
COc1cc2c(C(=O)Nc3ccccc3F)cn(C)c(=O)c2cc1OC	7.7	9.0	2.5	-9.3	0.2	i	0.1	4.6	3.4	-4.3
Cc1cc(Cl)c(S(=O)(=O)NCCC(=O)O)cc1OCC(N)=O	.	.	.	-5.8	-3.4	.	.	.	-6.3	11.1
CCNCC(=O)Nc1c(C)cccc1C	.	.	.	.	.	i	2.2	-2.4	3.3	.
Cc1ccc(CN2CC(C(=O)Nc3ccc(S(=O)(=O)Nc4cc(C)nc(C)n4)cc3)CC2=O)cc1 (stereo not drawn)	.	.	.	-3.4	-3.5	.	-8.8	.	-9.6	-3.3
CS(=O)(=O)N1CCN(C(=O)c2ccc(Cl)s2)CC1	15.4	7.3	-2.6	-15.5	-0.6	.	-5.1	2.1	-13.4	-26.3
CCSc1nsc(NC(=O)Nc2cccc(F)c2)n1	-55.9	-79.1	-25.4	41.6	-4.4	i	-3.3	-0.6	.	-7.0
O=C(Nc1ccccc1C(=O)Nc1ccccc1C(=O)NCc1ccco1)c1ccco1	-10.2	-11.1	7.6	6.5	-2.7	i	0.8	7.6	-16.1	17.1
Cc1cc(NC(=O)c2cc(-c3cccnc3)nc3c(C)c(C)ccc23)no1	.	.	.	31.3	0.3	.	.	.	-9.5	21.2
CCCCc1ccc(NC(=O)CC(C)(C)C)cc1	.	.	.	10.1	1.1	.	-5.7	.	4.9	-32.0
CCOC(=O)/C(=N/Nc1ccccc1)N1CCCc2ccccc21	.	.	.	10.5	-3.2	.	93.5*	.	2.2	-9.9
CC(C)(C)n1ncc2c(=O)n(Cc3ccc(Cl)c(Cl)c3)cnc21	8.7	6.9	-3.9	37.5	-0.3	i	-26.0	-2.2	13.5	5.9
CCCCC(CCC(=O)O)(C(=O)OCC)c1csc(Nc2ccc(OCC)cc2)n1 (stereo not drawn)	4.4	8.6	2.2	-2.6	2.3	i	71.5	.	1.8	20.4
CC1(C)C(C=C(Cl)Cl)C1C(=O)N(Cc1cccc(Cl)c1)C1CCS(=O)(=O)C1 (stereo not drawn)	.	.	.	-3.4	-2.9	.	-113.7	.	-2.3	6.1
Cc1cccc(N2CCN(C(=O)Cn3ccc4ccccc4c3=O)CC2)c1C	.	.	.	-2.2	-6.2	.	1.5	.	-4.8	-8.4
NC(=O)NC(=O)CSc1nc(C2CCCCC2)n(-c2ccccc2)n1	8.2	13.2	5.7	4.7	0.0	i	0.8	5.0	-2.4	-6.2
Nc1c([N+](=O)[O-])c(=O)oc2ccccc12	4.1	-2.9	-2.7	1.9	-0.9	i	-9.5	-1.8	-2.0	-4.4
COc1cccc(NC(=O)N2CCCC2C(=O)Nc2ccc3c(c2)OCO3)c1 (stereo not drawn)	.	.	.	-7.3	2.5	.	-20.0	.	-2.8	-19.4
Cc1cccc(NC(=S)NC(C)(C)CC(C)(C)C)c1	-49.8	-80.6	-13.4	10.5	1.7	i	-7.8	1.0	15.1	8.4
CCc1nnc(NC(=O)CSc2nc(-c3ccccc3)nc3ccccc23)s1	.	.	.	-12.7	-0.2	.	-0.2	.	-1.2	-6.5
Cc1cc(Br)ccc1NC(=O)CSc1nnc(CN2CCOCC2)n1C	3.4	8.3	0.0	2.0	-0.5	i	.	-3.5	-0.2	0.8
C/C(=C\C(=O)c1ccc(Br)cc1)NNC(=O)c1ccccc1	7.6	8.0	1.9	-4.0	-3.7	i	0.5	-1.4	.	-4.9
Cc1ccccc1N(C(=O)CNC(=O)c1ccco1)C(C(=O)NC1CCCCC1)c1cccnc1 (stereo not drawn)	6.8	12.3	-0.5	12.3	0.3	i	.	0.1	-0.8	1.7
O=C1N/C(=N\N=C\c2cccs2)SC1Cc1ccc(Cl)c(Cl)c1 (stereo not drawn)	-57.3	-59.0	-18.0	44.5	-2.0	i	0.2	0.3	-1.4	-0.6
CCC1CCCCN1C(=O)CCNS(=O)(=O)c1ccc2c(c1)oc(=O)n2C (stereo not drawn)	4.0	11.8	-0.6	-2.7	1.9	i	-5.2	-0.1	0.5	-8.6
O=C(O)c1ccccc1/C=N/n1c(C2CCCCC2)n[nH]c1=S	7.2	7.3	2.0	1.3	-1.9	i	97.7*	-2.9	-2.0	-0.7
CCCc1cc(=O)[nH]c(SCC(=O)NC(=O)OCC)n1	.	.	.	2.8	2.3	.	-4.2	.	-2.4	-2.8
CC1(c2ccccc2)NC(=O)N(CC(=O)N2CCN(S(=O)(=O)c3cccs3)CC2)C1=O (stereo not drawn)	-2.5	8.0	-3.3	-10.9	?	i	1.0	0.9	-2.0	-2.3

Bioassay records (PubChem BioAssay)
